Screening data as filed in PubChem BioAssay.
Cruzain inh noDet: blocks cruzain activity in detergent-free assay. Potency, µM, without a hit: max response, negative = inhibition, usual class: inhibitors. actives 2.3% (n = 200,000). purified cruzain, Z-FR-AMC fluorescence, no detergent. P25779; active = well fitted curve in the direction sought with a large enough effect; inconclusive = small, poorly fitted or top-dose-only effect, or another doubt; inactive = no such curve, though single readings can be large; an effect the other way counts as inactive or inconclusive;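 also: plate controls were enzyme without inhibitor for no effect and buffer without enzyme for full effect; nearly all actives have a fitted effect of over 40% in size; top concentration of the series not given in the record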
Target sequence (P25779 123-467 limits assumed): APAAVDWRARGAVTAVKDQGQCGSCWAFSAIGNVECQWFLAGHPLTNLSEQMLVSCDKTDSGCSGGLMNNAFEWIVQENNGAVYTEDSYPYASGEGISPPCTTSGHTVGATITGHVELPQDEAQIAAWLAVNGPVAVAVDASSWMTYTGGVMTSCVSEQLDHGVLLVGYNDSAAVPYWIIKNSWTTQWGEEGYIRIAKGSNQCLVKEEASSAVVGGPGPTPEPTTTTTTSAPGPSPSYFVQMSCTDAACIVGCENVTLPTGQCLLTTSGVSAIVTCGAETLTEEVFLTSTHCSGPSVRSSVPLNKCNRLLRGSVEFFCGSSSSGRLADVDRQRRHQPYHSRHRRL
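Detergent-free condition (0.00005% Triton X-100) in acetate buffer pH 5.5 with DTT. 1.5 nM enzyme and compound were pre-mixed 15 min, then 2 uM Z-FR-AMC substrate added; reaction progress from fluorescence change between first and third reads (60 s).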
NS1 inh: blocks influenza NS1 protein function; Potency, µM (titrated, usually from 46.1 µM), inactives show top-dose activity, positive = more growth; S. cerevisiae slowed by influenza A NS1, growth recovery by OD600; actives 0.4% (n = 270,000); also: actives are rising curves; nearly all actives have a fitted effect of over 50% in size
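S. cerevisiae expressing influenza A NS1, grown in glucose, washed, then diluted 1:100 into pH 6.0 -URA galactose medium with 23 nl compound. Growth recovery read as OD600; NS1-free strain serves as control.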
SARS PLP yeast: blocks SARS-CoV papain-like protease in a yeast assay; actives 0.19% (n = 330,000); AID 485353; Potency, µM (doses to about 32.9 µM), for the others: top-dose activity, positive = growth rescue; S. cerevisiae expressing SARS-CoV PLpro, growth rescue; control for the full effect not named in the record; also: 0% is about no effect; nearly all actives have a fitted effect of over 55% in size; growth read by luminescence after 48 h
LASV entry inh: blocks Lassa virus binding to or entry into cells; actives 1.2% (n = 300,000); Potency, µM (highest dose often 37.9 µM), without a hit: top-dose activity change, negative = inhibition, actives largely listed as inhibitors; Lassa virus pseudotype entry inhibition, cell reporter; control for the full effect not named in the record; active means well fitted inhibition curve with a large enough effect; inconclusive means small, poorly fitted or top-dose-only effect, or effect the other way; inactive means flat fitted curve, though single readings scatter; tested in HEK293 cells; also: % is scaled to controls: 0 for no effect and ±100 for the full control effect; nearly all actives have a fitted effect of over 50% in size; luciferase read-out
2A StopGo: lowers the luciferase signal of an FMDV 2A StopGo reporter. human cells with a luciferase reporter of 2A StopGo recoding; control for the full effect not named in the record. Potency, µM (titrated, usually from 57.9 µM), for inactives: at the highest dose signal change, negative = less light. actives 1.2% (n = 410,000). AID 1159524; active = well fitted falling curve with a large enough effect; inconclusive = small, poorly fitted or top-dose-only effect; inactive = no such curve, though single readings can be large or run the other way; tested in HEK293T cells; also: % is scaled to controls: 0 for no effect and ±100 for the full control effect; nearly all actives have a fitted effect of over 45% in size; luciferase light after 4 h
Marburg entry inh: inhibitors of Marburg virus binding or cell entry | Marburg virus pseudotyped entry inhibition, cell reporter; control for the full effect not named in the record; about a third of the inactives were read at about 46 µM | Potency, µM (top dose mostly 37.8 µM), for inactives: at the top dose activity change, negative = inhibition, actives largely listed as inhibitors | actives 1.8% (n = 300,000) | AID 540276; active = well fitted inhibition curve with a large enough effect; inconclusive = small, poorly fitted or top-dose-only effect, or effect the other way; inactive = flat fitted curve, though single readings scatter; tested in HEK293 cells; about a fifth of its hits are not listed in these tables; also: % is scaled to controls: 0 for no effect and ±100 for the full control effect; luciferase read-out
RE007 growth inh: less growth of the S. pombe RE007 Vpr strain; S. pombe RE007 Vpr strain, BacTiter-Glo ATP luminescence, 24 h; control for the full effect not named in the record; Potency, µM (highest dose often 92.2 µM), without a hit: at the top dose activity change, negative = less growth; actives 0.21% (n = 360,000); active = well fitted falling curve with a large enough effect; inconclusive = small, poorly fitted or top-dose-only effect; inactive = no such curve, though single readings can be large or run the other way;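 also: % is scaled to controls: 0 for no effect and ±100 for the full control effect; nearly all actives have a fitted effect of over 50% in size; the assay follows cell death caused by Vpr and the record does not say whether a fall means rescue or toxicity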
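Fission yeast strain RE007, carrying one chromosomally integrated HIV-1 vpr copy, was seeded at OD 0.01 in PMG+AL medium with 23 nL pinned compound. After 24 h at 30 °C and 99% humidity, viability was read by BacTiter-Glo luminescence.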
Cruzain inh Det: cruzain (T. cruzi) inhibition with detergent. purified cruzain, Z-FR-AMC fluorescence, 0.01% Triton. Potency, µM, for inactives: max response, negative = inhibition, most hits filed as inhibitors. actives 0.43% (n = 200,000). AID 1478; active = well fitted curve in the direction sought with a large enough effect; inconclusive = small, poorly fitted or top-dose-only effect, or another doubt; inactive = no such curve, though single readings can be large; an effect the other way counts as inactive or inconclusive;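 also: plate controls were neutral wells for no effect and buffer without enzyme for full effect; nearly all actives have a fitted effect of over 40% in size; top concentration of the series not given in the record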
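Detergent-containing arm of a paired screen for aggregation-based inhibition: 0.01% Triton X-100 present. Cruzain at 1.5 nM cleaved 2 uM Z-FR-AMC at pH 5.5 with 5 mM DTT; AMC fluorescence gain over 60 s measured activity.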
An asterisk follows results filed as active; ? = inconclusive; . = no result given; & = joins results of further samples; [ ] = dose if it differs, or a comment. Unless noted, calls follow the shape of the dose curve; as a rule, active means well fitted rising curve with a large enough effect; inconclusive means small, poorly fitted or top-dose-only effect; inactive means no such curve, though single readings can be large or run the other way. Potency is read from the fitted curve at half-maximal effect. Hits appear at their usual frequency; about 4.8% have a hit in one of these screens.

SMILES	Cruzain inh noDet	NS1 inh	SARS PLP yeast	LASV entry inh	2A StopGo	Marburg entry inh	RE007 growth inh	Cruzain inh Det
O=C(Nc1nnc(-c2cccs2)o1)c1ccc(S(=O)(=O)N2CCOCC2)cc1	.	.	0%	-8%	-14%	?	1%	.
Cc1ccc(-n2[nH]c(C)c(/C=N/c3cccc(C)n3)c2=O)cc1	.	-2%	-4%	.	38%[activator]	.	?	.
COc1ccccc1NC(=O)CCc1nnc2ccc(N3CCCCC3)nn12	.	-6%	-2%	-11%[46.1 µM]	14%	-4%[46.1 µM]	4%	.
COc1ccc(NC(=O)c2cc(S(=O)(=O)N3CCCC(C)C3)cn2C)c(OC)c1 (stereo not drawn)	9%	.	.	?	-7%	.	.	-4.1%
CCN(CC)CCCn1c2c(c(SCC(=O)Nc3cccc(C)c3C)nc1=O)CCC2	.	.	2%	4%	0%	?	-9%	.
COCCNC(=O)Cn1cnc2c(cnn2-c2ccc(OC)cc2)c1=O	.	1%	-3%	.	7%	.	2%	.
CCOc1cc(C2C3=C(CCCC3=O)NC3=C2C(=O)CCC3)cc(Cl)c1O	-7%	-9%	6%	?	28%	29%	-1%	-2.4%
O=C(CCc1ccc(S(=O)(=O)N2CCCCC2)cc1)c1nnc(-c2ccccc2)o1	25µM*	-2%	-7%	0%	14%	?	2%	-3.4%
COc1ccc(CNC(NC(=O)c2ccccc2)(C(F)(F)F)C(F)(F)F)cc1	-7%	7%	-10%	?	?	-17%	15%	-6.7%
CCc1ccccc1NC(=O)c1ccoc1C	0%	-30%	-5%	-2%	12%	?	18%	5.3%
Cn1c(=O)n(C)c2cc(NS(=O)(=O)c3cccs3)ccc21	.	.	5%	14%[46.1 µM]	9%	4%[46.1 µM]	4%	.
CC(C)c1nc(C#N)c(NN)o1	.	1%	-2%	.	-8%	.	3%	.
O=C(CSc1ccc(-c2ccccc2)nn1)c1ccccc1	1%	2%	0%	?	7%	12%	?	-5.1%
COC(=O)[C@@]1(Cc2ccc(F)cc2)[C@H]2c3cc(C(=O)N4CCCC4)n(Cc4cc(C)n(C)n4)c3C[C@H]2CN1C(=O)c1ccccc1	?	.	.	.	0%	.	-15%	-8.2%
NS(=O)(=O)c1ccc(CCNc2ncnc3c2cnn3-c2cccc(Cl)c2)cc1	-9%	.	.	8%[46.1 µM]	?	.	.	-5.7%
COc1ccc(C2C(C(=O)NCC3CCCO3)c3cc(OC)c(OC)cc3C(=O)N2C)cc1OC (stereo not drawn)	-6%	-5%	?	1%	10%	4%&4%[46.1 µM]	-4%	4.6%
COc1ccc(NC(=S)NC23CN4CN(CN(C4)C2)C3)cc1	2%	14%	11%	23%	-8%	-4%	-3%	-3.2%
Cc1ccc(C)c(N2CCN(C(=O)CCS(=O)(=O)c3cccc4nonc34)CC2)c1	?	-40%	-7%	2%	-20%	1%&1%	-6%	-11%
CC(C(=O)O)c1ccc2c(c1)[nH]c1ccc(Cl)cc12 (stereo not drawn)	-21%	-66%	-11%	.	-19%&4%	.	4%[18.4 µM]	-11%
O=C(C1=C[C@H](c2ccc3c(c2)OCO3)C[C@H](OCc2ccc(CO)cc2)O1)N1CCN(Cc2ccc3c(c2)OCO3)CC1	.	-18%	-1%	.	?	.	-4%	.
CS(=O)(=O)N1CCC(C(=O)N2CCN(Cc3ccccc3)CC2)CC1	.	.	3%	?	-24%	-1%[46.1 µM]	2%	.
O=C(NNS(=O)(=O)c1ccccc1)c1ccccc1-n1cccc1	.	11%	-1%	-2%[46.1 µM]	26%	3%[46.1 µM]	7%	.
Cc1ccc(S(=O)(=O)N(C)c2cc(S(=O)(=O)N3CCOCC3)c(C)cc2C)cc1	.	-11%	0%	.	-18%	6%[46.1 µM]	3%	.
Cc1cccc(-c2nc(NCCCN(C)C)c3ccccc3n2)c1	.	4%	-3%	7%[46.1 µM]	10%	?	?	.
CC(=O)Nc1cccc(NC(=O)C2CCCN2C(=O)Nc2cccc(C)c2)c1 (stereo not drawn)	-13%	-6%	8%	5%	.	16%	8%	5.3%
COc1ccc(NC(=O)C2CCCN2S(=O)(=O)c2ccc3c(c2)CCC(=O)N3)c(OC)c1 (stereo not drawn)	-5%	-12%	-2%	.	-4%	.	-6%	4.0%
COc1cc2c(cc1OC)C(C)N(C(=S)Nc1ccccc1)CC2 (stereo not drawn)	2%	-14%	7%	?	-20%	18%	4%	2.1%
COc1ccc(C(=O)CSc2nnc(NC(=O)C3CC(=O)N(c4ccccc4)C3)s2)cc1 (stereo not drawn)	-27%	11%	?	3%	-15%	20%	34%	-1.1%
COc1ccccc1OCCCOc1ccc(/C=C2\SC(=O)NC2=O)cc1OC	.	14%	0%	-25%	0%	?	8%	.
O=C(Nc1ccccc1)N1CCn2c1nc1ccccc12	3%	-45%	-3%	18%	-6%	7%	6%	-6.7%
Cc1ccc(SCC(=O)OCC(=O)N(CCC#N)c2ccccc2)cc1C	.	.	4%	6%	-26%	28%	-21%	.
CCc1ccc(NC(=S)Nc2cccc3cnccc23)cc1	.	.	-13%	?	-9%	?	?	.
COC(=O)c1ccc(NC(=O)CSc2nc3cccnc3n2C)cc1	5%	5%	-10%	1%	?	-17%	21%	-3.0%
c1ccc(Nc2ncnc3[nH]ncc23)cc1	.	3%	0%	.	-13%	.	-3%	.
CCC(C(=O)NCc1ccc(F)cc1)N(Cc1cccs1)C(=O)c1snc(C(N)=O)c1N (stereo not drawn)	.	0%	-1%	?	-22%	-2%[46.1 µM]	20%	.
O=c1oc2ccccc2cc1N1CCOCC1	6%	11%	-7%	-7%	1%	13%	1%	-2.4%
CCC1CCCCN1C(=O)Cn1c(=O)n(CCCC(=O)NCc2ccco2)c(=O)c2sccc21 (stereo not drawn)	.	-1%	0%	?	-5%	1%[46.1 µM]	-14%	.
CCCn1c(SCC(=O)NCc2ccccc2Cl)n[nH]c1=O	.	0%	1%	.	-14%	.	-2%	.
C/C=C(\C)C(=O)Nc1cccc(C2=NOC3(C2)C[C@@H](C(N)=O)N(C(=O)c2cc([N+](=O)[O-])cc([N+](=O)[O-])c2C)C3)c1 (stereo partly drawn)	.	-5%	3%	.	-6%	.	1%	.
COc1cc(/C=N/NC(=S)NCCc2ccccc2)cc(OC)c1OC	.	0%	1%	?	?	?	-22%	.
O=C(O)/C=C/c1coc2ccc(F)cc2c1=O	16%	-6%	-9%	8%	-24%	11%	-19%	-3.8%
N/C(=N\OC(=O)c1ccc(F)cc1)c1ccc(Br)cc1	.	-51%	-5%	-30%[46.1 µM]	20%	?	-28%	.
Cc1cc(C)cc(C(=O)NC(CC(N)=O)c2ccc(N3CCN(c4ccccn4)CC3)c([N+](=O)[O-])c2)c1 (stereo not drawn)	.	-2%	-4%	.	-17%	.	-9%	.
c1cncc(Nc2nc(-c3cccs3)cs2)c1	-30%	-77%	-18%	16%	59%[activator]	1%	-12%	-19%
Cc1cc(C)nc(NC(=O)c2csnn2)c1	.	.	-7%	-7%[46.1 µM]	13%	7%[46.1 µM]	-11%	.
CC(=O)Nc1cc2c3c(c1)CCC(=O)N3CCC2	.	-13%	-1%	.	-2%	.	12%	.
O=c1c2ccccc2oc2nc(-c3ccco3)n(CCc3ccccc3)c(=O)c12	-8%	0%	9%	.	.	-1%	.	9.0%
O=C(/C=C/c1ccc(Cl)c([N+](=O)[O-])c1)Nc1ccc(N2CCCC2)cc1	16µM*	?	-11%	-6%	-7%	1%	-4%	-27%
O=C(NCCC1=CCCCC1)c1cccc2c1C(=O)N(C1CCCCC1)C2	.	.	-3%	-22%	-5%	?	-8%	.
O=C(COc1ccc2ccc(=O)oc2c1)N1CCN(c2ccc(F)cc2)CC1	.	-10%	-6%	9%[46.1 µM]	?	?	5%	.

More records follow.
SMILES	Cruzain inh noDet	NS1 inh	SARS PLP yeast	LASV entry inh	2A StopGo	Marburg entry inh	RE007 growth inh	Cruzain inh Det
CCc1ccc(C(=O)NNc2ccccc2F)cc1	.	-6%	-2%	?	66%[activator]	4.5µM*	208%	.
CC(=O)NC(=O)NC1OC(=O)C(Cl)=C1Cl (stereo not drawn)	-19%	9%	7%	-23%	?	?	-6%	-24%
COc1ccc(-c2nnc(SCc3cc(C)ccc3C)n2N)cc1	-5%	-68%	3%	4%	-19%	-4%	-9%[3.69 µM]	-3.1%
S=c1[nH]nc(-c2ccco2)n1-c1ccc(Cl)cc1	.	-6%	0%	0%[46.1 µM]	0%	13%[46.1 µM]	4%	.
COc1cc2c(cc1OC)-c1cc(Nc3ccccc3Br)nc(=O)n1CC2	.	-8%	0%	-15%[46.1 µM]	-25%	?	6%	.
Cc1cc(C(=O)NCCN2CCN(c3cccc(Cl)c3)CC2)n(-c2ccccc2)n1	-4%	-8%	-15%	7.3µM*	?	7.3µM*	1%	3.7%
CCN(CC(=O)N1CCC(C(N)=O)CC1)S(=O)(=O)c1ccc(Cl)cc1	.	0%	-1%	11%	-1%	26%	-8%	.
Cc1nc(SCC(=O)N2CCN(c3ccccn3)CC2)c(C#N)c(C)c1C	.	.	-3%	-1%	?	?	12%	.
COc1ccc(OC)c(S(=O)(=O)N(C(C)=O)c2ccc3oc(=O)sc3c2)c1	.	.	4%	17%[46.1 µM]	13%	-9%[46.1 µM]	5%	.
CCCCc1c(O)nc(SCC(=O)Nc2ccc3c(c2)CCC3)[nH]c1=O	20µM*	-9%	7%	-20%	0%	-2%	-5%	-17%
COc1cc(OC)nc(NC(=O)CSc2nnc(-c3ccccc3)n2C2CCCCC2)n1	.	19%	.	2%	-8%	9%	-18%	.
Cc1ccc(S(=O)(=O)NCC(=O)OCC(=O)N2CC(=O)Nc3ccccc32)cc1	.	.	7%	?	-2%	1%	1%	.
COc1ccc(C(=O)N2CCN(c3ccccn3)CC2)cc1	-1%	-1%	-3%	-4%	4%	3%	13%[3.69 µM]	2.2%
